Screening results from PubChem.
Beta cell apopt – beta cell apoptosis inhibition; INS-1E cytokine-induced death, ATP luminescence, 48 h; percent of positive-control rescue, neutral wells zero; protection from apoptosis, % (concentration not given with the values); 300,000 compounds, 0.8% hits;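 active = all replicates at 75% or more, or half of them and the mean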;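 note: 0% = cytokine-treated negative control wells and 100% = positive control rescue; higher means more ATP so stronger rescue from cytokine killing; wells of about 40 µL received 100 nL stock; the first replicate is given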
UCH37 DUB inh – human UCH37 deubiquitinating enzyme inhibition; 330,000 compounds, 0.33% hits; inhibition, % (test concentration not listed); purified proteasome/UCH37, Ub-AMC cleavage fluorescence; AID 588478;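 active = mean of two replicates above 20%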;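 note: 0% = compound-free wells with enzyme and 100% = wells lacking proteasome; stock transfer was 100 nL into about 20 µL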
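Material: Human UCH37 enzyme supplied as purified proteasome complex | Schedule: 30 min compound-proteasome preincubation then 25 min substrate reaction, room temperature | Detection: AMC fluorescence from Ub-AMC cleavage, excitation 355 nm, emission 460 nm | Benchmarks: Wells without proteasome as full block, compound-free enzyme plus substrate as uninhibited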
A1 inh – inhibitors of the anti-apoptotic protein A1, read as caspase activation | MEF A1-2A-BIM cells, Caspase-Glo 3/7 luminescence, 3 h; percent of clofoctol response, vehicle zero | caspase activation, % (test concentration not listed) | 330,000 compounds, 0.066% hits;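 active = over half of replicate activation scores above 10%, or exactly half above 10 with the replicate mean above 10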;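 note: wells of about 30 µL received 50 nL stock; many hits fall short of the cut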
FGF22 binding – FGF22 (human) thermal shift binding. 340,000 compounds, 1.5% hits. Q9HCT0. calls only at 9.99 µM. recombinant FGF22 thermal shift, SYPRO orange fluorescence; percent of sucrose octasulfate shift, DMSO zero;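 active = melting point raised past a set limit in the mean and every replicate; three in four hits are not shown here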
Target sequence (Q9HCT0 whole entry, looked up): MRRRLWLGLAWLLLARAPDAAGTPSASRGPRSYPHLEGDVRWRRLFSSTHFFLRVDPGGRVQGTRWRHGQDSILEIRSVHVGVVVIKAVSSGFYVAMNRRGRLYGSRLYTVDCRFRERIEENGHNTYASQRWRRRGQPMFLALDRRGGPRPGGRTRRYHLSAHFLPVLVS
rRNA inh HTS – selective bacterial rRNA inhibition in E. coli; 350,000 compounds, 1.6% hits; AID 720706; GFP signal change (wild-type ribosome), % (no concentration beside the values); E. coli WT GFP vs humanized-ribosome RFP mutants, fluorescence, 24 h; stronger effect = lower value; DMSO median 0, no signal -100;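 active = significant combined selectivity score with lowered wild-type GFP, culture density cut under 30%, mutant RFP and density less affected; inactive = any of these conditions unmet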; note: one replicate is shown; some compounds called inactive have numbers as strong as hits
AF4-AF9 inh – blocks AF4 peptide binding to human AF9; AlphaScreen, biotin-AF4 peptide binding to FLAG-AF9; inhibition, % at 10 µM; 350,000 compounds, 0.47% hits;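 active = every replicate reaching a set inhibition limit, whatever the replicate mean, cut at about 25% in these data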;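 note: 0% = plate neutral control median and 100% = total signal loss; the record names both 10 and 1 µM as test concentration; the first replicate is given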
Target sequence (P42568 whole entry, looked up): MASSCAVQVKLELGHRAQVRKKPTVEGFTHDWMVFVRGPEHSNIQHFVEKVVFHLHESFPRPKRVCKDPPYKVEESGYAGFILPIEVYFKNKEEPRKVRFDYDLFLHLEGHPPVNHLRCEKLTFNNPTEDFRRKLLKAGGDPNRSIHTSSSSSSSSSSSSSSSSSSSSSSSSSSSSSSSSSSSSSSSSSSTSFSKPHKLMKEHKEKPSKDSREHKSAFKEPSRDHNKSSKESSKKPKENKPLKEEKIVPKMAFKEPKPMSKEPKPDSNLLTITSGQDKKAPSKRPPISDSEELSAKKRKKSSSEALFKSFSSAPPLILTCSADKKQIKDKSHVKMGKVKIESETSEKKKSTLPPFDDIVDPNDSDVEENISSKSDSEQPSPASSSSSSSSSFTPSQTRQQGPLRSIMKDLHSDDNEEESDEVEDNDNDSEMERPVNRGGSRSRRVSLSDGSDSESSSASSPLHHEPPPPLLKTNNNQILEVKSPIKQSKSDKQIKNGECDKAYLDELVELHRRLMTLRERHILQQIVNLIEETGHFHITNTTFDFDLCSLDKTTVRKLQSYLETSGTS
E coli growth – blocks Escherichia coli growth; OD600, 23 h; stronger effect = lower value; OD600 absorbance (concentration not given with the values); 330,000 compounds, 0.21% hits; AID 1053175;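 active = OD600 absorbance below the run mean of sample wells minus 3.6 SD, in any replicate, cut at about 0.56 in these data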;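 note: stock transfer was 300 nL into about 60 µL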
T cruzi repl – T. cruzi replication inhibition; T. cruzi beta-gal in NIH3T3, luminescence, 90 h; inhibition, % (concentration not given with the values); 300,000 compounds, 1.4% hits;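 active = mean inhibition across valid replicates above about 55%, limit read from the data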;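 note: signal also drops with host cell toxicity which is not excluded here; 0% = plate median of DMSO wells and 100% = zero luminescence signal; higher percent means less beta-gal luminescence so fewer parasites; stock transfer was 50 nL into about 50 µL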
rRNA inh HTS OD600 – second read-out of rRNA inh HTS, no call of its own (marks repeat the call); OD600 change, %; measured here: OD600 growth;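 optical density of the mix in the first replicate; 0 = DMSO median and -100 = no signal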
rRNA inh HTS RFP – further read-out of rRNA inh HTS, marked with its call; RFP signal change, %; measured here: RFP humanized mutant strains;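 first replicate; 0 = DMSO median and -100 = no signal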
The depositor's hits bear a star; i = inactive; · = no result given; + = active, no number; & = joins results of further samples.

item	SMILES	T cruzi repl	rRNA inh HTS RFP	A1 inh	FGF22 binding	rRNA inh HTS	Beta cell apopt	rRNA inh HTS OD600	AF4-AF9 inh	E coli growth	UCH37 DUB inh
1	CC1(C)COC(Nc2cccc(Cl)c2)=N1	-5	·	0.5	·	·	-4	·	·	0.68	0.7
2	COc1ccc(OP(=O)(Nc2ccccc2)Nc2ccccc2)cc1	0	11	0.5	i	-2	0	-3	1.3	0.71	-0.7
3	c1ccc(CNc2c3c(nc4ccccc24)CCC3)cc1	35	-7.2	1.0	i	-44	29	-72	5.5	0.55	-21
4	Cc1[nH]c2ccccc2c1CCNCc1ccco1	2	2.9	1.2	i	10	-1	11	7.9	0.71	4.0
5	NP(=O)(Oc1ccccc1Cl)Oc1ccccc1Cl	-31	3.0	1.1	·	29	3	22	-2.4	0.59	0.1
6	Cc1ccc(C(=O)N[C@@H](C)CN2C3=NC[C@@H](Cc4ccccc4)N3C[C@H]2Cc2ccc(O)cc2)cc1Br	29	-26	1.0	i	-54	6	-79	27*	·	0.8
7	CCOC(=O)C1=C(C)OC(N)=C(C#N)C12C(=O)Nc1ccc(C)cc12 (stereo unspecified)	2	·	-0.3	·	·	·	·	·	0.74	1.5
8	CCC(=NCc1cccnc1)c1c(O)n(-c2ccccc2C)c(=O)[nH]c1=O	·	·	0.1	i	·	-5	·	-2.1	0.67	5.7
9	CCCCN1CCC(C#N)(Nc2ccccc2)CC1	-3	2.7	0.7	·	24	0	24	·	0.68	3.9
10	CC(C(=O)c1c[nH]c2ccccc12)N1CCN(C(=O)c2ccco2)CC1 (stereo unspecified)	-8	4.7	1.6	i	6	-9	-5	0.4	0.67	2.7
11	Cc1cc(N2CCNCC2)nc2ccccc12	9	-3.0	-0.8	i	2	-11	1	-6.2	·	·
12	Brc1cc2c(cc1CN1CCN(c3ccccc3)CC1)OCCO2	17	-3.5	0.2	i	-1	-4	-20	9.8	·	·
13	COCCNC(=O)N1[C@H]2CC[C@@H]1C(C(=O)OC)=C(c1ccc(-c3ccccc3)c(F)c1)C2	·	-4.7	0.2	i	-34	2	-67	0.3	·	7.7
14	CCCCC(=O)N/N=C/c1c(O)n(Cc2ccc(F)cc2)c(=O)[nH]c1=O	-10	1.9*	0.2	i	-27*	·	-8.6*	-0.9	0.69	5.3
15	CN(C)C(Cc1ccc(Cl)cc1)C(=O)c1ccccc1 (stereo unspecified)	-10	·	-0.5	·	·	-5	·	·	0.66	2.3
16	COC(=O)C1=C(c2ccccc2)C[C@@H]2CC[C@H]1N2C(=O)NCCS(C)=O (stereo partly specified)	-15	-6.0	1.2	i	-9	-2	-13	4.2	·	1.7
17	NP(=O)(OCCCc1ccccc1)Oc1ccccc1Cl (stereo unspecified)	-19	-4.3	1.4	i	-11	-4	0	-1.8	·	-1.1
18	NC(=O)Cn1cc(C(=O)c2ccccc2F)c2ccccc21	-15	-3.6	0.2	i	8	-1	4	-1.1	0.69	5.3
19	COC(=O)C1=C(c2ccc(F)cc2F)C[C@@H]2CC[C@H]1N2C(=O)N1CCCCC1	·	3.4	1.2	i	-1	-2	0	-6.8	·	21*
20	c1ccc2c(CN3CCOCC3)c[nH]c2c1	2	-3.4	1.9	i	9	·	12	1.0	0.67	1.9
21	CN(C(=O)Oc1ccc(F)cc1)c1ccccc1	-11	2.1	-1.0	i	26	-1	19	-2.0	0.6	2.3
22	COc1ccccc1-n1c(O)c(C=Nc2c(C)n(C)n(-c3ccccc3)c2=O)c(=O)[nH]c1=O	2	9.9	-0.2	i	5	-1	8	-85	0.71	12
23	O=c1[nH]c(=O)n(CCC2=CCCCC2)c(O)c1C=NCc1cccnc1	·	·	0.2	·	·	-6	·	·	0.68	44*
24	CCN(CC)C(=O)c1ccc(NC(=O)c2ccc(N3CCCC3=O)cc2)cc1	·	·	-0.4	i	·	3	·	-1.4	0.68	0.3
25	C=Cn1ccnc1P(=S)(c1ccc(Cl)cc1)c1nccn1C=C	-8	3.2	0.0	i	9	-2	2	0.0	0.67	1.1
26	Cc1cccc(CC(c2cccc(C)c2)N(C)C)c1 (stereo unspecified)	·	0.6	·	i	15	·	18	-0.9	0.66	1.6
27	CN(C)CCN(CC1CCCN(Cc2ccccc2F)C1)C(=O)Cc1c(F)cccc1F (stereo unspecified)	43	4.1	0.8	i	17	·	12	2.1	0.66	1.2
28	COc1ccc(C(=O)C2CN(C)CC2C(=O)c2ccc(OC)cc2)cc1 (stereo unspecified)	-16	·	0.2	·	·	-1	·	·	0.7	0.8
29	CCC(COC(=O)NC)NC(=O)Oc1ccccc1 (stereo unspecified)	-9	·	-0.3	·	·	-2	·	·	0.71	-0.6
30	CN1CC(Br)C(=O)NC1=O (stereo unspecified)	·	0.3	·	i	12	·	10	-1.1	0.69	6.1
31	O=C1C2CCN(CC2)C1Cc1ccc(OCCOc2ccccc2)cc1 (stereo unspecified)	5	·	-0.7	·	·	-3	·	·	0.69	-1.4
32	O=C(Nc1ccccc1)c1cccn(Cc2ccccc2)c1=O	7	0.3	0.2	+	-11	-4	11	-2.5	0.66	4.3
33	CC(C)(C)c1o[nH]c(=O)c1CC(N)C(=O)O (stereo unspecified)	·	-3.2	1.2	i	1	-5	6	-7.8	0.67	1.5
34	CCCC[N+]1(C)C2CC(OC(=O)C(CO)c3ccccc3)CC1C1OC12 (stereo unspecified)	-10	·	-0.9	i	·	9	·	-0.5	0.71&0.71	-1.5
35	COc1ccc(CCn2c(O)c(C=NCCCN(C)C)c(=O)[nH]c2=O)cc1OC	-7	·	0.4	·	·	·	·	·	0.72	3.7
36	COC(=O)C1=C(c2ccccc2OCc2ccccc2)C[C@@H]2CC[C@H]1N2C(=O)NCc1ccc([N+](=O)[O-])cc1	·	0.8	-0.3	i	8	-4	2	6.2	·	1.3
37	COc1ccc(CN2CCCC(C(=O)c3ccccc3SC)C2)cc1O (stereo unspecified)	17	-1.6	0.3	·	5	2	-7	2.7	0.63	1.5
38	COCCN1Cc2cc(=O)n3c([nH]c4ccccc43)c2C1=N	-13	-9.8	1.3	i	-10	0	-1	4.5	0.69	i
39	Cc1ccc2c(c1)C1CN(C)CCC1N2C(=O)c1cccnc1Cl (stereo unspecified)	-5	17	-0.1	i	9	-1	7	7.4	0.73	3.5
40	COC(=O)C1=C(c2ccc(-c3ccccc3)c(F)c2)C[C@@H]2CC[C@H]1N2C(=O)NCc1ccc(F)cc1	·	0.2	-0.1	i	5	4	-5	1.3	·	6.2
41	O=C(O)C(Cc1cnc[nH]1)NS(=O)(=O)c1ccc(Br)cc1 (stereo unspecified)	-11	-0.7	0.8	i	9	3	14	-1.7	0.68	0.5
42	N#Cc1ccc(NC(=O)CN2C(=O)NC3(CCCCCCC3)C2=O)cc1Cl	·	-1.9	-0.1	i	-6	0	-23	-0.7	0.66	1.1
43	CC(=O)N1CCN(Cc2ccc(Cl)nc2)CC1	-15	-11	-0.3	i	-10	-4	-9	-4.6	0.67	1.1
44	CC1CC2(O)c3nonc3CCC2N1O (stereo unspecified)	-22	·	0.0	·	·	-4	·	·	0.7	0.2
45	COc1ccc(-n2c(=O)[nH]c3ccccc3c2=O)c(OC)c1	-7	·	-1.2	·	·	·	·	·	0.67	-0.2
46	CC1CN=C(NCc2ccccc2)S1 (stereo unspecified)	-8	·	0.2	·	·	-7	·	·	0.67	1.1
47	NCCc1c[nH]c2ccc(O)cc12	-17	-2.0	-0.4	i	13	4	8	6.8	·	0.6
48	CN1CC[C@]23c4c5ccc(OC6OC(C(=O)O)[C@@H](O)C(O)[C@H]6O)c4OC2C(O)C=CC3[C@H]1C5 (stereo partly specified)	·	1.9	·	i	8	·	15	·	0.69	0.2
49	CC(C)N1C(=O)CC2(CC[N+](C)(CCOC(=O)C(O)(c3ccccc3)c3ccccc3)CC2)C1=O (stereo unspecified)	-13	·	0.8	·	·	0	·	·	0.77	4.0
50	C#CCN(C)C(C)Cc1ccccc1 (stereo unspecified)	-34	-1.4	0.9	i	8	-8	14	4.3	0.65	0.4

Results in T cruzi repl, rRNA inh HTS and rRNA inh HTS OD600, for some of the entries so far:
nr	canonical_smiles	T cruzi repl	rRNA inh HTS	rRNA inh HTS OD600
42	N#Cc1ccc(NC(=O)CN2C(=O)NC3(CCCCCCC3)C2=O)cc1Cl	·	-6	-23
43	CC(=O)N1CCN(Cc2ccc(Cl)nc2)CC1	-15	-10	-9
44	CC1CC2(O)c3nonc3CCC2N1O (stereo unspecified)	-22	·	·
45	COc1ccc(-n2c(=O)[nH]c3ccccc3c2=O)c(OC)c1	-7	·	·
46	CC1CN=C(NCc2ccccc2)S1 (stereo unspecified)	-8	·	·
47	NCCc1c[nH]c2ccc(O)cc12	-17	13	8
48	CN1CC[C@]23c4c5ccc(OC6OC(C(=O)O)[C@@H](O)C(O)[C@H]6O)c4OC2C(O)C=CC3[C@H]1C5 (stereo partly specified)	·	8	15

The main list resumes, starting three compounds before the break.
item	SMILES	T cruzi repl	rRNA inh HTS RFP	A1 inh	FGF22 binding	rRNA inh HTS	Beta cell apopt	rRNA inh HTS OD600	AF4-AF9 inh	E coli growth	UCH37 DUB inh
48	CN1CC[C@]23c4c5ccc(OC6OC(C(=O)O)[C@@H](O)C(O)[C@H]6O)c4OC2C(O)C=CC3[C@H]1C5 (stereo partly specified)	·	1.9	·	i	8	·	15	·	0.69	0.2
49	CC(C)N1C(=O)CC2(CC[N+](C)(CCOC(=O)C(O)(c3ccccc3)c3ccccc3)CC2)C1=O (stereo unspecified)	-13	·	0.8	·	·	0	·	·	0.77	4.0
50	C#CCN(C)C(C)Cc1ccccc1 (stereo unspecified)	-34	-1.4	0.9	i	8	-8	14	4.3	0.65	0.4
51	CCCC(C)C1(CC)C(=O)NC(=Nc2ccc(OC)cc2)NC1=O (stereo unspecified)	-11	3.0	-0.5	·	22	-23	12	-1.5	0.64	1.3
52	O=[N+]([O-])c1ccc(NCCCN2CCOCC2)nc1	13	10	0.4	i	6	3	13	-2.0	0.64	9.4
53	COC(=O)C1=CCCN(C)C1	-1	·	0.9	i	·	0	·	-2.2	0.64	0.9
54	CCCCn1c(O)c(C=NC2CCCCC2N)c(=O)[nH]c1=O (stereo unspecified)	4	·	-0.2	·	·	-3	·	·	0.68	-0.6
55	Cc1ccc(CC(=O)N2CCN(Cc3ccccc3)CC2)cc1	-14	6.2	-1.3	i	9	3	-1	-0.9	0.75	2.8
56	CCC(=NCc1cc(OC)cc(OC)c1)c1c(O)n(C2CCCCC2)c(=O)[nH]c1=O	24	6.8	0.0	i	6	-3	9	-6.5	0.67	4.1

Not all compounds are listed; rates above refer to the full screens.
